TDP1 inh = TDP1 (human) enzyme inhibition; recombinant TDP1, AlphaScreen DNA substrate cleavage; Q9NUW8; hit rate 0.28% among 350,000; Potency, µM (highest dose often 130 µM), for inactives: at the highest dose activity change, negative = inhibition, actives largely listed as inhibitors; active = well fitted inhibition curve with a large enough effect; note: nearly all actives have a fitted effect of over 40% in size
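AlphaScreen read-out: signal falls as enzyme removes the 3' tyrosine-FITC from a 5'-biotinylated DNA oligo (15 nM, 5 min, RT). Enzyme was E. coli-made recombinant Tdp1 at 1 nM, exposed to compound for 15 min beforehand; beads 10 ug/ml, 10 min.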
Active calls of the source: *; & = joins results of further samples; [ ] = remark or other dose. % is set by controls: 0 for no effect and ±100 for the full control effect; potency is the fitted concentration of half-maximal effect.

cpd	Molecule	TDP1 inh
1	O=C1CN=C(c2ccccc2)c2cc(Cl)ccc2N1	1.3%
2	O=C(O)/C=C\C(=O)O	5.9%
3	CN1[C@@H]2CC[C@H]1CC(OC(=O)c1cc(Cl)cc(Cl)c1)C2 (stereo partly specified)	-6.5%[56.1 µM]
4	CC(COc1ccccc1)N(CCCl)Cc1ccccc1 (stereo unspecified)	-2.4%
5	Cc1ccccc1N	-0.2%&-1.4%
6	CC(C)=CCN1CC[C@@]2(C)c3cc(O)ccc3C[C@@H]1C2C (stereo partly specified)	3.4%
7	C[C@]12CCC(=O)C=C1CCC1C2CC[C@@]2(C)C1CC[C@]2(C)O (stereo partly specified)	1.5%
8	C[C@]12CC[C@@H](O)C[C@@H]1CC[C@@H]1[C@@H]2CC[C@]2(C)C(=O)CC[C@@H]12	5.1%&3.6%
9	O=C(O)C(Cl)Cl	6.2%&0.0%&7.0%

In the list so far, four have a halogen:
cpd	Molecule	TDP1 inh
1	O=C1CN=C(c2ccccc2)c2cc(Cl)ccc2N1	1.3%
3	CN1[C@@H]2CC[C@H]1CC(OC(=O)c1cc(Cl)cc(Cl)c1)C2 (stereo partly specified)	-6.5%[56.1 µM]
4	CC(COc1ccccc1)N(CCCl)Cc1ccccc1 (stereo unspecified)	-2.4%
9	O=C(O)C(Cl)Cl	6.2%&0.0%&7.0%

For reference, some entries already given:
cpd	Molecule	TDP1 inh
1	O=C1CN=C(c2ccccc2)c2cc(Cl)ccc2N1	1.3%
2	O=C(O)/C=C\C(=O)O	5.9%

Only part of the results is shown, and most or all hits are left out here.
